MT1-MMP act inh: blockers of MT1-MMP proenzyme processing, primary screen, HT1080 RFP-PRO-GFP cells, GFP/RFP fluorescence | Matrix metalloproteinase-14 (Homo sapiens), P50281 | GFP/RFP ratio fluorescence, overnight; percent of plate control window, DMSO zero | GFP/RFP ratio change, % at 20 µM | hit rate 0.061% among 360,000 | AID 651647, 2012;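 active = GFP/RFP ratio change of at least 30% with cell ATP level not reduced by more than half and red fluorescence within 50% of control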; also: strong numbers were not always called active
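Test system: HT1080 RFP-PRO-GFP cells; Benchmarks: DMSO and RFP-L50D-GFP cell wells; Timing: cells overnight before dosing, compound overnight, 37 °C, 5% CO2; Compound: one 20 µM compound dose with 1% DMSO; Read-out: GFP/RFP fluorescence ratio.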
Env fusion inh: inhibitors of HIV-1 Env-driven cell-cell fusion, primary screen, HeLa-JRFL effector, CEM21 target cells, luciferase | hit rate 1.1% among 360,000 | AID 651610, 2012 | inhibition, % at 12.3 µM;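 active = mean replicate inhibition score of at least 50 and every replicate individually at or above 50; inconclusive = only one of the two criteria met; inactive = mean below 50 and not all replicates reaching 50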;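 also: 0% = plate neutral controls and 100% = maraviroc near 300 nM; one replicate is shown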
Yeast UUG start: modulators of yeast start codon fidelity, primary screen, whole organism, S. cerevisiae, single point, plate reader; S. cerevisiae UUG-firefly luciferase reporter, luminescence/redox ratio; activity score, % at 18.7 µM; hit rate 0.13% among 350,000;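 active = replicate mean at a twofold rise or more, about +100% in these data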;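 also: firefly luciferase made from a UUG start codon reports start codon fidelity; reporter light over untreated wells divided by growth signal over untreated wells; some hits fall short of that in this replicate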
Rce1 inh: yeast Rce1p protease inhibitors, primary screen, biochemical, fluorescence, cell-free homogeneous | CAAX prenyl protease 2 (Saccharomyces cerevisiae (strain ATCC 204508 / S288c)), Q03530 | yeast membranes, quenched prenylated peptide cleavage fluorescence | calls only | hit rate 0.27% among 290,000 | AID 2563, 2010;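 active = fall in fluorescence gain of 50% or more versus controls, with final raw signal at or below 3038400; inconclusive = same 50% fall but final raw signal above 3038400; inactive = fall in fluorescence gain under 50%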;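 also: plate controls were neutral control wells for no effect and wells lacking membranes for full effect; tested at 10 µM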
Target sequence (Q03530 whole entry, looked up): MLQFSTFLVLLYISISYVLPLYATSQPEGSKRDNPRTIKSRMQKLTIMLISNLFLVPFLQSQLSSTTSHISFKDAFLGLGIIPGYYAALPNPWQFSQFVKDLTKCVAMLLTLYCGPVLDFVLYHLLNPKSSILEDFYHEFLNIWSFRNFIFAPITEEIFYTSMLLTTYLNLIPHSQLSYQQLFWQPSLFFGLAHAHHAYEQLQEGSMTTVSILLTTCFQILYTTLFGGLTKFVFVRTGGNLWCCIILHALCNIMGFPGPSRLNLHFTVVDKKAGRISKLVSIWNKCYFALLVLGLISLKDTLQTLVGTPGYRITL
CSC inhib: cancer stem cell viability inhibitors, primary screen, luminescence. cancer stem cell-like cells viability. inhibition, % at 7.5 µM. hit rate 1.1% among 300,000. AID 2717, 2010;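 active = mean at 75% or more and at least half the replicates too; inconclusive = mean and replicates disagree; tested in HMLE shEcad cells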;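 also: 0% = median of negative and 100% = median of positive control wells; the first replicate is given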
eIF4H FP inh: human eIF4H binding inhibitors, primary screen, translation initiation inhibitor project, biochemical, uHTS, fluorescence polarization; Eukaryotic translation initiation factor 4H (Homo sapiens), Q15056; AID 2012, 2009; inhibition, % at 35 µM; hit rate 0.94% among 290,000; eIF4H fluorescence polarization binding assay;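 active = 50% or more with normal probe brightness, or confirmed in later tests; inconclusive = above 50% with abnormal brightness, or retests that disagree; inactive = below 50% or failed in later tests; about a fifth of its hits are not listed in these tables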;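 also: calls also rest on retests at 20 µM and on dose response follow-up; 0% = protein and probe with vehicle and 100% = probe without protein; strong numbers were not always called active; many hits fall short of the cut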
PABP polyA inh: PABP poly(A) RNA binding inhibitors, primary screen, biochemical, fluorescence polarization, uHTS; inhibition, % at 35 µM; hit rate 1% among 290,000; AID 2014, 2009;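 active = 50% or more with normal probe brightness, or confirmed in later tests; inconclusive = above 50% with abnormal brightness, or retests that disagree; inactive = below 50% or failed in later tests; about a fifth of its hits are not listed in these tables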;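 also: calls also rest on retests at 20 µM and on dose response follow-up; controls were probe without protein and protein plus probe with vehicle; some compounds called inactive have numbers as strong as hits; many hits fall short of the cut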
Target sequence (P11940 whole entry, looked up): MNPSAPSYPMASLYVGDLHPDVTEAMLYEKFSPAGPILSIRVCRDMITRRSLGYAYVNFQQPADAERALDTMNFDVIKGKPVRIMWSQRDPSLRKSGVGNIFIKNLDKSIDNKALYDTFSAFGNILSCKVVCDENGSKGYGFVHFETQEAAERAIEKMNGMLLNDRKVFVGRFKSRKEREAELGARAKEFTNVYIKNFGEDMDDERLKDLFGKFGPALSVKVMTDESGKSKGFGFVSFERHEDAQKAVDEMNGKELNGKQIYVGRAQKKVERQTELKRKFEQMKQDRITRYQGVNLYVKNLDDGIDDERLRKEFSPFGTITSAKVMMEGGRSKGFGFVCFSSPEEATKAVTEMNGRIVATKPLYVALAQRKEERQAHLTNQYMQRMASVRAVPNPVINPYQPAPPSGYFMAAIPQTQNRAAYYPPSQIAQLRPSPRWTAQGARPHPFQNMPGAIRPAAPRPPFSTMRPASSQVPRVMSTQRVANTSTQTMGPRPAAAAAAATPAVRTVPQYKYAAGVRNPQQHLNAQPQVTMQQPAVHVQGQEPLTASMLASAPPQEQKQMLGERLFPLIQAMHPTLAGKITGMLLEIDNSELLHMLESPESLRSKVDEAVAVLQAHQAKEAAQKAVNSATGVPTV
eIF4H FP inh retest: recorded beside eIF4H FP inh, whose call it bears; inhibition, %; compound at 20 µM; confirmation average;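 mean of two retest wells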
PABP polyA inh retest: recorded beside PABP polyA inh, whose call it bears; inhibition, %; compound at 20 µM; confirmation repeats;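 mean of two retest wells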
MT1-MMP act inh RFP: further read-out of MT1-MMP act inh, marked with its call; RFP signal change, %; measured here: RFP expression control read;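 0 = vehicle wells; hits needed this value within 50% of zero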
The depositor's hits bear a star; i = inactive; ? = inconclusive; . = not tested or not shown; & = joins results of further samples; [ ] = remark or other dose.

SMILES	MT1-MMP act inh	MT1-MMP act inh RFP	Env fusion inh	Yeast UUG start	Rce1 inh	CSC inhib	eIF4H FP inh	PABP polyA inh	others
COc1ccc(/C=C/C(=O)OCC(=O)c2ccc(S(=O)(=O)N3CCCCC3)cc2)cc1OC	2	0	7	7	i	-3	.	.
COc1cccc2c1OCC(CN1CCN(CCC(C)C)C(CCO)C1)=C2 (configuration not stated)	1	3	-5	.	i	.	-1	-12
CC(NCCC1(C(C)C)CCOC(C)(C)C1)c1cccs1 (configuration not stated)	-1	2	-15	-22	i	-2	-5	1
CCn1c(COc2ccc(Cl)cc2)nnc1SCC(=O)Nc1ccc2c(c1)OCO2	5	-3	.	-1	i	16	2	-4
COC(=O)c1cn[nH]c1N	7	8	.	-10	.	2	-6	-7
Cc1cc(NC(=O)CSCC(=O)Nc2nc3ccccc3s2)no1	-1	0	.	-12	.	-12	.	.
C=CCN(CC=C)S(=O)(=O)c1ccc(C(=O)Nc2sc3c(c2C(N)=O)CCCCC3)cc1	-4	-4	5	-9	i	-5	6	26
COc1ccc(C(=O)Nc2ccc3c(c2)C(=O)NC3=O)cc1	2	2	-20	0	i	0	-13	-20
COCCCNC(=O)CN(c1ccc(F)cc1)S(=O)(=O)c1ccc2c(c1)OCCO2	4	3	-3	6	i	-3	1	-3
NC(=O)C1CCN(C(=O)Cc2ccsc2)CC1	1	6	-7	-12	i	2	11	30
O=C(NCCCN1CCCC1=O)c1ccc(S(=O)(=O)Nc2ccccc2)cc1	1	6	0	1	i	-6	.	.
COc1ccc(Br)cc1S(=O)(=O)Nc1ncccc1C	0	0	9	.	i	1	0	14
COc1ccc(OCC(=O)N2CCN(C(=O)c3ccccc3)CC2)cc1	2	2	.	-8	i	3	6	4
CCOC(=O)c1ccccc1NC(=O)CN(c1cccc(OC)c1)S(C)(=O)=O	1	0	-5	10	i	5	6	6
O=C(NNS(=O)(=O)c1ccc(F)cc1)c1ccc([N+](=O)[O-])cc1	-3	-3	.	-10	i	-12	-9	1
COC(=O)c1ccc(NC(=O)c2cccc(OC)c2)cc1	-1	-3	-157	-12	i	-13	1	5
COc1ccc(NC(=O)CN(C)C2=NS(=O)(=O)c3ccccc32)cc1Cl	3	-1	1	-22	.	.	.	.
Cc1ccc(-c2cc3nc(-c4ccccc4)cc(N)n3n2)cc1	2	1	-95	20	i	-4	-19	-3
CCc1ccc(C2CC(c3ccc(C)cc3)Nc3nc(N)nn32)cc1 (configuration not stated)	1	-3	-54	-25	i	-11	-4	-11
CC(C)(C)c1ccc(C(=O)N/C(=C/c2cccs2)C(=O)NCc2ccco2)cc1	6	-4	-10	.	i	-6	10	-2
C=CCN1C=CC(=CC=C(C#N)C#N)C=C1	-132	1	-9	16	i	-23	?	?
O=C(Cc1cccc(C(F)(F)F)c1)N1CCCC1	2	6	-8	-5	i	3	-4	-4
CC(C)C(NC(=O)OCc1ccccc1)C(=O)NC1CCCCC1 (configuration not stated)	0	-5	-17	.	i	4	-8	-12
Cc1cc(-c2ccccc2)nc(N/N=C/c2ccco2)n1	-10	-8	-30	.	i	-5	13	7
CCOC(=O)c1c(C)c(C(=O)NCCN2CCOCC2)c(C)n1CC	0	4	-35	-10	i	4	-6	-4
CC(=O)Nc1ccccc1-c1nc2ccccc2nc1OCC(=O)c1ccc(Cl)cc1	2	1	-2	-14	i	1	-4	-12
O=C(c1ccc(Br)cc1)N1CCN(Cc2ccccc2)CC1	-2	-3	22	-3	i	-6	5	6
COc1cccc(CNC(=O)c2cc(S(=O)(=O)N3CCCC3)cn2C)c1	1	1	-5	-9	i	-7	31	13
COCCN(CC(=O)NC1CCCCC1)C(=O)CCCC(=O)Nc1ccccn1	0	2	8	.	i	-6	-3	-9
CC(NC(=O)C(=O)N1CCOCC1)C(c1cccs1)N1CCN(c2ccccc2)CC1 (configuration not stated)	-4	2	10	-10	i	-1	12	4
O=C(Nc1ccc2c(c1)OCO2)Nc1ccc2c(c1)OCO2	2	3	-10	-13	i	0	-1	-1
CCOC(=O)N1CCN(Cc2cc(=O)oc3cc4c(cc23)CCC4)CC1	5	-1	.	-9	i	1	29	25
CC(C)C(=O)Nc1cccc(N2CCN(CCCN3C(=O)C4CCCCN4C3=O)CC2)c1 (configuration not stated)	-1	-1	2	105*	.	.	.	.
NS(=O)(=O)c1ccc(NC(=O)COC(=O)CCCN2C(=O)c3cccc4cccc(c34)C2=O)cc1	1	1	-2	-6	.	-12	.	.
CS(=O)(=O)Nc1ccc(C2=NN(S(C)(=O)=O)C(c3ccccc3)C2)cc1 (configuration not stated)	0	-1	-16	-1	i	21	-6	-1
O=C(COc1ccccc1)NCCc1cn2ccsc2n1	-6	5	5	-27	i	-31	-1	-5
COC(=O)c1cn(Cc2ccccn2)c(=O)c2ccccc12	2	4	1	-16	i	-2	-2	5
CN1CCN(C(=O)c2ccc(C3SCC(=O)N3Cc3ccco3)cc2)CC1 (configuration not stated)	-6	-3	.	-6	.	62	-9	-10
COc1cc(C(=S)N2CCN(C)CC2)ccc1OCC(=O)NCc1ccccc1	0	-1	8	.	i	-11	-5	-2
C[C@@H]1CN([C@@H](C)CO)C(=O)c2cc(Br)cnc2O[C@H]1CN(C)C(=O)Nc1ccc(F)cc1	3	2	17	-3&-5&-1	.	.	.	.
Cc1ccnc(NC(=O)CSc2nnc3c(n2)[nH]c2ccccc23)c1	.	.	.	.	i	18	-10	2
CCN1C(=O)N/C(=C/c2ccc(Sc3ccc(C)cc3)o2)C1=O	-5	-12	.	-12	i	28	9	1
COCc1cc(C)nc(OCC(=O)N/N=C/c2cccc(OC)c2)c1C#N	-9	1	.	3	i	-12	7	-16
Cn1c(=O)c2c(nc(N3CCCCCC3)n2CC(O)COc2ccccc2)n(C)c1=O (configuration not stated)	4	-2	.	-9	i	-21	25	21
COc1ccc2c(c1)C1C=CCC1C(c1cc3c(cc1Br)OCO3)N2 (configuration not stated)	-22	0	-45	-20	i	60	70*	22	eIF4H FP inh retest=88*;PABP polyA inh retest=28
Cc1[nH]ccc(=O)c1OCc1c(Cl)cccc1Cl	3	10	-57	-14	i	-19	-9	1
O=C(NCc1ccc2c(c1)OCO2)c1nc(S(=O)(=O)Cc2ccccc2)ncc1Cl	0	1	?	5	i	.	-3	2
Cc1ccnc(NC(=O)C2CCCN(S(=O)(=O)c3ccc4[nH]c(=O)ccc4c3)C2)c1 (configuration not stated)	-2	-1	31	-13	i	-6	5	1
Cc1ccsc1CNc1ncnc2ccc(-c3c(C)noc3C)cc12	17	-7	.	-36	.	9	.	.
C=CCc1c(C)nc(SCc2nc3ccccc3c(=O)[nH]2)[nH]c1=O	-1	4	.	-13	i	3	-8	-12
Other results follow.
SMILES	MT1-MMP act inh	MT1-MMP act inh RFP	Env fusion inh	Yeast UUG start	Rce1 inh	CSC inhib	eIF4H FP inh	PABP polyA inh	others
CCO[C@@H]1OC(C(=O)NC2CC2)=C[C@H](c2ccccc2)[C@H]1CCCO	3	5	-10[16.7 µM]	-13&-12	i	-25	0	2
CC(C)c1ccc(CC(=O)N2CCC2(C)C(=O)Nc2cccc(C#N)c2)cc1 (configuration not stated)	-1	-9	-5	-14	.	.	.	.
Cc1nc(N)ncc1-c1ccc2c(c1)OCO2	-3	1	42	-21	i	-10	4	1
COc1ccc(NC(=O)c2cccc(NC(=O)c3ccco3)c2)c(OC)c1	2	-1	0	-14	i	-3	-6	0
O=C(O)c1ccc(Cl)c(S(=O)(=O)N(Cc2ccccc2)c2ccccc2)c1	-2	-1	4	-8	.	34	-5	0
N#Cc1ccc(C(=O)N2CCC3CC2c2cc(N4CCCCC4)ccc23)cc1 (configuration not stated)	2	0	7	8	.	.	.	.
Cc1nc2ccccn2c1C(=O)N/N=C/c1cc(C)n(-c2ccc(Br)cc2)c1C	-4	-4	-74	-26	i	-2	-4	6
CC(C)CC(c1nnnn1C(C)C)N1CCN(c2ccccc2)CC1 (configuration not stated)	6	7	.	-3	i	-7	-5	-11
CCC(=O)Nc1ccccc1N1CCN(S(C)(=O)=O)CC1	3	5	.	-2	i	.	4	-4
COc1cccc(NC(=O)C2CCC2)c1	0	-1	8	-25	.	18	.	.

Grouped by structure: those above with a cyano group
SMILES	MT1-MMP act inh	MT1-MMP act inh RFP	Env fusion inh	Yeast UUG start	Rce1 inh	CSC inhib	eIF4H FP inh	PABP polyA inh	others
C=CCN1C=CC(=CC=C(C#N)C#N)C=C1	-132	1	-9	16	i	-23	?	?
COCc1cc(C)nc(OCC(=O)N/N=C/c2cccc(OC)c2)c1C#N	-9	1	.	3	i	-12	7	-16
CC(C)c1ccc(CC(=O)N2CCC2(C)C(=O)Nc2cccc(C#N)c2)cc1 (configuration not stated)	-1	-9	-5	-14	.	.	.	.
N#Cc1ccc(C(=O)N2CCC3CC2c2cc(N4CCCCC4)ccc23)cc1 (configuration not stated)	2	0	7	8	.	.	.	.

Following part
SMILES	MT1-MMP act inh	MT1-MMP act inh RFP	Env fusion inh	Yeast UUG start	Rce1 inh	CSC inhib	eIF4H FP inh	PABP polyA inh	others
COc1ccc([N+](=O)[O-])c(OC)c1C(=O)NC(=O)Nc1nc(C)cc(C)n1	0	1	8	.	i	-4	0	-16
COc1ccc(Cc2nc3ccc(C(=O)NC4CCOC4)cc3o2)cc1 (configuration not stated)	-1	1	1	0	i	21	-6	1
O=C(C1CCN(S(=O)(=O)N2CCOCC2)CC1)N1CCN(Cc2ccccc2)CC1	6	4	.	-3	i	-10	2	12
COc1ccc(CN(C(C)=O)c2ccccc2C(=O)O)cc1	2	5	-2	-4	i	-3	-5	-12
O=C(c1ccc(Br)s1)N1CCN(S(=O)(=O)c2ccccc2)CC1	-5	-6	8	3	i	-4	0	7
COc1ccc(OC)c(-c2cc(C(=O)N3CCN(c4ncccn4)CC3)c3ccccc3n2)c1	-3	0	.	26	i	.	-4	-2
CC(=O)Nc1ccc(OCC(=O)NC(C)C(C)C)cc1 (configuration not stated)	4	10	.	-15	i	-4	-10	2
O=C(O)C1CCN(S(=O)(=O)c2cccs2)CC1	0	2	-5	-23	i	5	-15	-3
CN(C(=O)c1ccc(NC(=O)Cc2cccc(NC(=O)C3CCCN(C(=O)CCc4ccccc4)C3)c2)cc1)C1CCCC1 (configuration not stated)	10	-14	10	8	.	-12	.	.
CCc1ccc(N2CCN(C(=O)c3ccc4c(c3)OCO4)CC2)cc1	2	2	6	-16	i	-6	-13	-6
COc1cc(C)c(CN2CCN(C(=O)CCC(=O)c3ccc(C)s3)CC2)cc1OC	1	-1	11	16	.	.	.	.
COc1ccccc1CNC(=O)CNCC1CCCO1 (configuration not stated)	2	7	-56	-17	i	-8	-9	18
O=C(CCc1nnc(C2CCCCC2)o1)NCc1ccc(F)c(F)c1	1	7	0	.	i	10	-3	8
CCOc1ccc(S(=O)(=O)N2CCCC(C(=O)NCc3ccco3)C2)cc1 (configuration not stated)	-3	-2	7	-2	i	-7	-3	-8
O=C(CSC1=NCCS1)Nc1ccc(S(=O)(=O)N2CCCCCC2)cc1	1	0	21	-16	i	1	-9	-4

High-throughput results as filed in PubChem.
